# High-throughput results: PubChem BioAssay, National Center for Advancing Translational Sciences (NCATS)
# Sfp inh – inhibitors of Bacillus subtilis Sfp phosphopantetheinyl transferase. Biochemical Sfp PPTase activity, qHTS. Potency, µM, for inactives: max response, negative = inhibition, hits mostly inhibitors. 310,000 tested, 3.5% active. AID 1490; active means well fitted inhibition curve with a large enough effect; inconclusive means small, poorly fitted or top-dose-only effect, or another doubt; inactive means no such curve, though single readings can be large or run the other way;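 further: the enzyme is Sfp with the accession as filed and its product quenches rhodamine fluorescence; potency means the concentration at half of the fitted maximal effect; 0% = enzyme reaction without inhibitor and -100% = no enzyme wells; top concentration of the series not given in the record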
#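 Fluorescence-quenching assay with 15 nM Sfp, 5 uM rhodamine-CoA and 12.5 uM BHQ-2-labelled ybbR peptide in pH 7.6 Hepes/MgCl2 buffer. Enzyme was pre-incubated with compound for 15 min at room temperature. Rate was taken from the 30-min fluorescence change (525/598 nm).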
# gsp antag – gsp mutant antagonism. gsp-mutant cells, cAMP HTRF, 30 min; control for the full effect not named in the record. Potency, µM (series often up to 76.9 µM), for the others: at the top dose activity change, negative = inhibition, hits mostly inhibitors. 340,000 tested, 0.4% active. AID 624288; active = falling curve of any shape with a large fitted effect; inconclusive = falling curve, mostly with a smaller effect; inactive = flat or rising curve; cell line not stated here;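 further: intracellular cAMP measured with PDE inhibitor Ro 20-1724 present during compound exposure; potency means the concentration at half of the fitted maximal effect; on the % scale 0 is the no-effect control and ±100 the full control effect; nearly all actives have a fitted effect of over 65% in size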
#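 Cells, 2000/well, grown 16–24 h in DMEM 10% FBS with 0.5 mg/ml G418, then compounds plus […] (300 uM addition stock), 30 min at 37C. cAMP read by HTRF (cAMP-d2 and anti-cAMP antibody-K in lysis buffer) after 30 min RT.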
# Menin-MLL FL inh – menin-MLL binding inhibition, fluorescein peptide; Fluorescence polarization, fluorescein-MLL peptide displacement from menin; FP activity change, % at 61.4 µM; 290,000 tested, under 10 active; AID 1766; inconclusive = falling polarisation curve, or a change in total fluorescence; inactive = total fluorescence flat and polarisation flat or rising; no compound was filed as active; the % refers to the polarisation; negative = inhibition;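 further: % of control where 0% means no effect; inhibitors lower the polarisation; unlabelled MLL peptide was the positive control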
# PINK1 modulator – PINK1 expression modulation; PINK1 immunofluorescence, high-content cytometry, 24 h; Potency, µM (top dose mostly 76.6 µM), inactives show top-dose activation (PINK1 increase), usual class: activators; 410,000 tested, 0.2% active; AID 624263; active = well fitted activation curve with a large enough effect; inconclusive = small, poorly fitted or top-dose-only effect; inactive = flat fitted curve, though single readings scatter; cell line not stated here;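 further: potency means the concentration at half of the fitted maximal effect; % of control where 0% means no effect; nearly all actives have a fitted effect of over 65% in size; a mitochondrial uncoupler was the plate control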
#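 Decision-based qHTS: stable cells, 24 h exposure to five compound concentrations, CCCP as control. Fixed cells stained for PINK1 plus nuclear, mitochondrial and cell markers, cytometer read.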
# gsp agonist – gsp mutant agonism; gsp mutant cells, cAMP HTRF, 30 min; control for the full effect not named in the record; Potency, µM (highest dose often 76.9 µM), without a hit: at the highest dose activation (cAMP increase), most hits filed as activators; 340,000 tested, 0.13% active; AID 624287; active = well fitted activation curve with a large enough effect; inconclusive = small, poorly fitted or top-dose-only effect, or another doubt; inactive = no such curve, though single readings can be large or run the other way; cell line not stated here;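 further: phosphodiesterase inhibitor Ro 20-1724 added with compounds to block cAMP breakdown; potency means the concentration at half of the fitted maximal effect; nearly all actives have a fitted effect of over 60% in size; about a fifth of the inactives were tested at one dose only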
#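 Cells in DMEM/10% FBS with G418 were pretreated with compounds in DMSO plus […] (300 uM stock) for 30 min at 37C. cAMP was measured by HTRF (cAMP-d2 plus anti-cAMP antibody-K) after 30 min at room temperature.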
# ClpP mod – qHTS Assay for Activators of ClpP | Potency, µM (highest dose often 57.5 µM), for the others: at the highest dose activity change, negative = active | ATP-dependent Clp protease proteolytic subunit (Bacillus subtilis (strain 168)), P80244 | 340,000 tested, 1.9% active | purified B. subtilis ClpP, FRET peptide cleavage, 20 min; active = well fitted falling curve with a large enough effect; inconclusive = small, poorly fitted or top-dose-only effect; inactive = no such curve, though single readings can be large or run the other way; further: potency means the concentration at half of the fitted maximal effect; the source files actives as falling curves though it sought activators and does not explain the sign; nearly all actives have a fitted effect of over 65% in size; many hits overshoot -100%
# Target sequence (P80244 whole entry, looked up): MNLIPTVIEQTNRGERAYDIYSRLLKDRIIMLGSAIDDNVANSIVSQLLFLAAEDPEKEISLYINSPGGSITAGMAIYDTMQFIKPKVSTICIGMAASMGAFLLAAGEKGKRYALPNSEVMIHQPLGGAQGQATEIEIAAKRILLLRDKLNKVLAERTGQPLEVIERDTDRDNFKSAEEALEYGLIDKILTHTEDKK
#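 Purified B. subtilis ClpP, 10 microg/mL final in Tris/HCl pH8 with KCl, BSA, glycerol and Tween-20, cleaved an Abz/nitrotyrosine-quenched decapeptide. Fluorescence (ex 320, em 430) was read at 0 and 20 min at room temperature. Delta was normalized to 5.8 microM ADEP and DMSO/no-enzyme controls.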
# D2 ag – activates the human D2 dopamine receptor; P14416; DiscoveRx PathHunter D2 beta-arrestin, luminescence, 90 min; 100% = 57 uM dopamine signal; activation, % (test concentration not listed); 360,000 tested, 0.084% active; AID 624465; in the data active = activation above about 40%; inconclusive = about 15% to 40%; inactive = below about 15%; further: compound concentration not given in the record; the text of the record calls up to 30% inactive
# Target sequence (P14416 whole entry, looked up): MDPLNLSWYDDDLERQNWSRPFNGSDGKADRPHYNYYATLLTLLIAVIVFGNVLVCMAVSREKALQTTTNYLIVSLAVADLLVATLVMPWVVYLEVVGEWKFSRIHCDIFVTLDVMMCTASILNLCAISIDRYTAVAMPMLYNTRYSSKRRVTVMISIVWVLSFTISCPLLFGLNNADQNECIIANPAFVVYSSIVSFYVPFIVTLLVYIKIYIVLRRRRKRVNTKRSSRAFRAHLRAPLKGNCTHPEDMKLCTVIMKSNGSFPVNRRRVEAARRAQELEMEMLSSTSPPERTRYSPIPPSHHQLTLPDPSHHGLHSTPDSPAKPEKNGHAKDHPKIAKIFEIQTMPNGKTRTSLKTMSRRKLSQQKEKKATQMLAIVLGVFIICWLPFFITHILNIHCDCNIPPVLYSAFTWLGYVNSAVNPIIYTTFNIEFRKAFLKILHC
#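 DiscoveRx PathHunter D2 beta-arrestin cells (2,100/well) attached overnight, then compound-stimulated 90 min at 37 C in HBSS/10 mM HEPES/0.1% Tween-20 buffer; beta-galactosidase complementation read by luminescence after 1 h at ambient temperature. Dopamine 57 uM final (EC100) as control.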
# * hit, by the source's call; ? = inconclusive; . = no result given; [ ] = another dose, or the depositor's remark. Compounds were not picked by outcome, and some 5.1% of all compounds hit somewhere here.
SMILES	Menin-MLL FL inh	ClpP mod	gsp agonist	D2 ag	Sfp inh	gsp antag	PINK1 modulator
COc1ccccc1CCNCc1ccc(OC)c(OCc2ccccc2)c1	1.2	-2.7%	-19%	-2.4	?	-18%	9.4%[38.3 µM]
CCOc1cc(C(=O)OCC(=O)N(C)c2ccccc2)cc(OCC)c1OCC	2.8	.	10%[15.4 µM]	-1.2	12%	-3%	-0.6%
O=C(C/C=N/OCc1ccc(Cl)cc1Cl)c1ccc(Cl)cc1	4.0	?	11%	1.7	-1%	1%	0.3%
COc1ccccc1OCCNC(=O)CCNC(=O)c1ccccc1Cl	-2.0	0.1%	?	-2.1	23%	3%	0.1%
O=C(Nc1cccc(C(=O)Nc2cccc(Br)c2)c1)c1ccccc1	2.0	5.8%	?	-10	3%	?	3.8%
O=C(/C=C/c1ccc(Cl)cc1)Nc1cc(S(=O)(=O)N2CCOCC2)ccc1N1CCOCC1	.	-1.9%	-2%[15.4 µM]	-1.8	.	-13%	0.8%
c1ccc(Oc2ccc(-c3ccn[nH]3)cc2)cc1	1.9	0.8%	-9%[15.4 µM]	2.1	12%	13%	2.7%
COCCNC(=O)c1ccc(CS(=O)(=O)c2cccc(C(F)(F)F)c2)o1	0.5	1.9%	14%	-0.3	5%	-1%	-0.6%
COc1cc2cc(CN(CCCN3CCOCC3)C(=O)Nc3ccccc3F)c(=O)[nH]c2cc1OC	2.0	.	-5%[15.4 µM]	-1.0	14%	.	-1.7%
Cc1ccc(OCC(=O)Nc2ccc(N3CCN(C(=O)c4ccco4)CC3)cc2)cc1	-4.1	-0.5%	-25%	5.8	12%	-22%	-0.1%
Cc1ccc(C(=O)OCC(=O)NCC(F)(F)F)cc1C	3.7	-1.9%	-13%	0.2	16%	10%	1.7%
COC(=O)Nc1ccc(S(=O)(=O)N2CCCCC2)cc1	0.5	0.7%	22%	-2.9	11%	13%	?

# (continued)
SMILES	Menin-MLL FL inh	ClpP mod	gsp agonist	D2 ag	Sfp inh	gsp antag	PINK1 modulator
Cc1cc(C)c(C(=O)Cn2nc(C)c([N+](=O)[O-])c2C)cc1C	0.3	0.5%	0%[15.4 µM]	-5.1	3%	-26%	4.7%
Cc1cc(C(=O)NNC(=O)c2c(-c3c(Cl)cccc3Cl)noc2C)no1	.	3.5%	4%[15.4 µM]	-0.3	9%	1%	-0.9%
CC(c1ccncc1)C(C)c1ccncc1 (configuration not stated)	.	-4.9%	5%	-2.8	.	-13%	-0.6%
CNc1oc(-c2ccc(F)cc2)nc1S(=O)(=O)c1ccccc1	2.9	.	?	-2.0	15%	-4%	1.2%
COc1ccc(CC(=O)N/N=C/c2cc([N+](=O)[O-])cc(Br)c2O)cc1	19	2.6%	?	-11	24%	-10%	0.6%
CC(C)n1cc(/C=N/NC(=O)COc2cccc3cccnc23)c2ccccc21	-1.6	-1.0%	-5%[15.4 µM]	5.9	?	-7%	-1.6%
Cc1ccc(S(=O)(=O)c2nc(N3CCOCC3)sc2Cl)cc1	0.2	-0.9%	8%	-1.8	50µM*	-1%	-0.2%
Cc1nnc(NC(=O)C2CCCN2S(=O)(=O)c2ccc(Cl)cc2)s1 (configuration not stated)	-3.3	.	-5%	-2.9	19%	-10%	-1.1%
Nc1cc2c(cc1Cl)-c1ccccc1C2	.	-15%	-21%	-5.4	.	14%	-2.6%
Cc1cccc(C(=O)Nc2ccc(C(=O)N/N=C/c3ccco3)cc2)c1	.	-5.3%	-20%	-2.7	.	-1%	3.0%
COC(=O)c1ccc(/C=C2\N=C(SC)SC2=O)cc1	11	-7.5%	1%	-2.1	?	9%	8.2%
Cc1ccc(NC(=O)CSc2ccccc2NC(=O)c2ccccc2Cl)cc1Cl	4.1	-1.5%	-17%	-3.6	?	28µM*	6.9%

# Continued:
SMILES	Menin-MLL FL inh	ClpP mod	gsp agonist	D2 ag	Sfp inh	gsp antag	PINK1 modulator
C=CCn1c(SCC(=O)Nc2ccc(Cl)cn2)nnc1C1CC1	.	-0.2%	0%	-2.7	4%	4%	0.0%
COc1ccccc1N(C(=O)Cn1nnc2ccccc21)C(C(=O)NCc1ccco1)c1ccc(C)o1 (configuration not stated)	3.2	-2.8%	5%	-2.6	-23%	-7%	-2.5%
CO/N=C/c1ccc(N2CCN(C(=O)c3cccc(Cl)c3)CC2)c([N+](=O)[O-])c1	-0.9	-0.4%	3%	-1.9	-6%	-10%	1.0%
NCCCC[C@H]1CNC(=S)N1CC1(c2ccccc2)CC1	-0.3	1.4%	12%	1.6	8%	9%	-0.9%
CC1(C)CC(NC(=O)Cc2ccc(Cl)cc2)CC(C)(C)N1	-1.2	1.4%	6%[15.4 µM]	-5.0	3%	12%	-0.6%
COc1ccc(NC(=O)C2(c3ccccc3)CCCC2)cc1	-0.5	.	6%[15.4 µM]	0.0	4%	-6%	3.0%
Cc1cc(C(=O)NC2CCCc3ccccc32)no1 (configuration not stated)	4.0	-0.6%	31%	-0.8	18%	6%	-4.1%[38.3 µM]
Nc1ccc(-c2ccc(N)cc2C(F)(F)F)c(C(F)(F)F)c1	9.2	-5.1%	-31%	1.3	5%	3%	9.8%
CC(C)OC(=O)c1nnn(-c2nonc2N)c1CN1CCCCCC1	-1.4	-0.5%	7%	4.4	-16%	-7%	.
O=C(CN1C2=NCCCN2c2ccccc21)c1cccs1	9.4	-1.9%	-6%	-1.3	14%	8%	-0.1%
COc1cccc2cc(C(=O)N3CCN(C(=O)c4ccccc4)CC3)c(=O)oc12	2.6	-6.8%	15%	-1.5	15%	15%	-1.5%
COc1ccc(-c2nc3c4ccccc4ccn3c2CN2CCCCC2)cc1OC	0.1	4.2%	10%	-0.5	10%	-20%	-0.6%

# Next section.
SMILES	Menin-MLL FL inh	ClpP mod	gsp agonist	D2 ag	Sfp inh	gsp antag	PINK1 modulator
Cc1cc(CSc2ccccc2)ccc1NC(=O)c1ccc(Br)cc1	-2.9	.	-16%[15.4 µM]	-2.6	20%	10%	4.9%
Cc1nnc(SCC(=O)Nc2ccc(Br)cc2)n(N)c1=O	2.5	-6.4%	-26%	-0.7	-1%	-4%	1.8%
O=C(COc1ccc2ccccc2c1)Nc1nc2ccccc2[nH]1	3.5	-5.8%	2%	-9.5	16%	6%	10%
O=C(NN=C(Cc1ccccc1)Cc1ccccc1)c1ccccc1F	5.0	.	-3%[15.4 µM]	-1.8	19%	-8%	0.2%
CCCOc1cccc(-c2cc(C(=O)N/N=C/c3ccccn3)c3ccccc3n2)c1	.	-23%	?	-2.1	10%	-12%	2.8%
Cc1oc(/C=N/NC(=O)CN(c2ccccc2Cl)S(C)(=O)=O)cc1Br	0.5	2.2%	19%	-3.3	-2%	-6%	2.3%
COc1ccc(-n2nc(C(=O)NCC(=O)O)c3ccccc3c2=O)cc1	-0.1	-1.9%	-15%	3.9	11%	3%	1.0%
CCOC(=O)C1CCN(C(=O)Cc2ccccc2OC)CC1	-2.5	.	-7%[15.4 µM]	2.2	2%	.	-1.4%
O=C(ON=C1CCN(c2ccc([N+](=O)[O-])cc2)CC1)c1ccccc1	2.8	0.9%	0%	-2.1	6%	-6%	29%[38.3 µM]
CN(C)N1C(N)=C(C#N)C(c2cccc3ccccc23)C2=C1CC(c1ccccc1)CC2=O (configuration not stated)	3.1	-17%	20%[15.4 µM]	2.4	-1%	-9%	?
COc1cccc(OCCOc2cccc(/C=N/n3cnnc3)c2)c1	4.2	-3.5%	-4%	-2.6	16%	6%	-2.2%[38.3 µM]
CCOC(=O)c1cc(C(=O)n2cc(Cl)cn2)nn1C	11	0.4%	?	-1.6	36%[activator]	3%	-0.9%

# Continuation.
SMILES	Menin-MLL FL inh	ClpP mod	gsp agonist	D2 ag	Sfp inh	gsp antag	PINK1 modulator
OCC[C@H]1C[C@@H](O)[C@H](O)[C@]2(CCCCO2)O1	0.0	1.4%	.	-3.1	17%	6%	-0.4%
COc1cccc(/C=N/NC(=O)C(=O)NCc2cccnc2)c1	-2.2	0.7%	?	-0.4	12%	1%	.
Cc1cccc(NC(=O)CN(C)S(=O)(=O)c2ccc3c(c2)n(C)c(=O)c(=O)n3C)c1C	.	-14%	?	-1.2	21%	1%	1.2%
c1ccc(N2CCN(Cc3ccc4c(c3)OCO4)CC2)nc1	.	-1.4%	-12%	65*	.	1%	-0.1%
Cc1cccc(C(=O)N2CCCCCC2)c1	4.6	-1.8%	-15%	-1.4	11%	0%	-2.4%[38.3 µM]
Cc1cc(C(=O)NC2CC(C)(C)Cc3c2cnn3-c2ccccc2C)c(C)o1 (configuration not stated)	1.0	0.5%	1%	-4.3	-12%	-18%	4.1%
CCOc1ccc(C(=O)CN2C(=O)NC3(CCCc4ccccc43)C2=O)cc1 (configuration not stated)	.	-1.7%	20%	-1.8	.	.	0.1%
CC(C)c1ccc(NC(=O)[C@@H]2CCC(=O)N2C2OC(=O)c3ccccc32)cc1 (some centres not stated)	-3.0	0.9%	.	-3.4	5%	7%	-0.3%
Cc1nc2ccccc2nc1N1CCCCC1	7.4	-4.1%	-1%	-0.8	4%	-17%	-1.9%
COC(=O)c1cc(Br)c(=O)n(CCc2ccccc2)c1	2.7	1.2%	2%	-0.9	15%	5%	0.3%
COc1ccccc1NC(=O)c1ccc(COc2ccccc2OC)cc1	.	-0.4%	2%[15.4 µM]	-1.1	.	-20%	0.4%
COC(=O)c1ccccc1NC(=O)c1cc2ncc(Br)cn2n1	-0.1	-20%	20%	-2.0	-9%	-1%	7.3%
CCn1c(CNC(=O)c2cccc(C)c2)nnc1SCC(=O)NC1CCCCC1C (configuration not stated)	2.9	-1.8%	2%	4.0	10%	3%	-2.1%
CC(=O)N1CCN(C(=O)c2cc(=O)c3ccccc3o2)CC1	3.0	.	26%	-3.3	-3%	7%	-0.6%
COc1ccc(OCc2cc(C(=O)NC3Cc4ccccc4C3)no2)c(Cl)c1	-1.9	-4.6%	26%	-0.6	8%	-13%	7.1%
